# Screening results deposited in PubChem BioAssay by SRMLSC.
# H5N1 CPE: MDCK cell protection from H5N1 avian flu. cytopathic effect, luminescence, 72 h; hits give high values; no value below 0 was filed and about half of the inactive calls have no number; reference of the scale not given here. inhibition, % at 50 µM. actives 0.07% (n = 96,000). AID 740, 2007; in the data active means inhibition above about 25%
# * = called active by the depositor; i = inactive. Some of the compounds tested (hit frequency here may not be typical).
molecule,H5N1 CPE
CCOC(=O)c1sc(NS(=O)(=O)c2ccccc2Cl)nc1C,0.4
O=C(CN1C2=NCCN2c2ccccc21)c1ccco1,6.6
COc1cccc(-c2ccc(=O)n(CC(=O)Nc3cc4c(cc3NC(C)=O)OCCO4)n2)c1,0.2
C=CCN(C(=O)Nc1ccc(F)cc1)C1CC(=O)N(c2ccc(OC)cc2)C1=O (stereo not drawn),i
O=C(Nc1ccc(F)cc1)C1CCN(c2nnnn2-c2ccccc2)CC1,i
COc1ccc(C(=O)OCCN2C(=O)c3ccccc3C2=O)cc1,i
CCSc1ncc(Cl)c(C(=O)Nc2sc3c(c2C(=O)NCc2cccnc2)CCCC3)n1,i
CCc1ccc(N2CC(C(=O)Nc3cc(C)ccc3F)CC2=O)cc1 (stereo not drawn),i
O=C(O)c1ccc2c(c1)OCCO2,1.2
Cc1c(NC(=O)C(C)Sc2nc3ccccc3c(=O)n2CCO)c(=O)n(-c2ccccc2)n1C (stereo not drawn),0.8
CCN1CCN(C(=O)COc2ccc3c(c2)C(=O)CC2(CCN(C(C)=O)CC2)O3)CC1,0.4
COC(=O)c1cn(NC(=O)c2cccc(OC)c2)c(=O)c2ccccc12,i
CN(Cc1ccccc1)Cc1c[nH]c2ccccc12,i
COc1ccccc1NC(=O)c1ccc(C)s1,0.4
O=C(CCc1ccccc1)Nc1ccccc1F,i
CC(=O)c1ccc(N2C(=NC(=O)C(C)C)SC3CS(=O)(=O)CC32)cc1 (stereo not drawn),0.1
CC/C(C)=C1\SC(N2CCN(c3cccc(C(F)(F)F)c3)CC2)=NC1=O,0.3
Cc1ccc(OCC(=O)NNC(=O)C2CCN(c3nc(C)cc(C)n3)CC2)cc1,i
COc1ccc(OC)c(/C=N/c2oc(-c3ccco3)c(-c3ccco3)c2C#N)c1,1.6
Cc1onc(C(=O)/C=C/N(C)C)c1C(=O)Nc1nccs1,i
Cn1cc(Cl)c(-c2nc3ccccc3[nH]2)n1,i
CC(C)(C)NC(=O)CSc1n[nH]c(=O)n1-c1ccccc1,i
CN(C)c1nccc(N(Cc2ccccc2)Cc2ccccc2)c1C#N,3.3
COc1ccc2c(c1)sc1nc(-c3ccccc3)cn12,0.9
CC(=O)c1ccc(OCC(O)CN2CCN(Cc3ccc4c(c3)OCO4)CC2)cc1 (stereo not drawn),1.2
CC(C)[C@H](NC(=O)Nc1cccc(C(F)(F)F)c1)C(=O)O,i
Cc1ccc2nc(Nc3nc(C)cc(C(F)(F)F)n3)nc(C)c2c1,i
O=C(Nc1ccc(F)cc1)c1sc2cc(C(F)(F)F)cnc2c1-c1cccs1,i
COc1cc(-c2noc(CCCC(=O)NCc3ccco3)n2)cc(OC)c1OC,i
CCc1cc2c(cc3c(=O)n(CC(=O)NCCCN4CC(C)CC(C)C4)ncn32)s1 (stereo not drawn),i
O=[n+]1c2c(n([O-])c3ccccc31)CCCC2,i
CCCNC(=O)NC(=O)CSc1ccc2c(c1)OCCO2,0.6
Fc1ccc(-c2ccnc3nc(N4CCN(c5ccccc5)CC4)nn23)cc1,2.1
CC1(C2CC2)NC(=O)NC1=O (stereo not drawn),i
CCOC(=O)CSc1ncc(OC)c(Sc2ccc(Cl)cc2)n1,0.7
COC(=O)c1c(NC(=O)c2ccco2)sc(C)c1C,1.0
Cc1ccc(S(=O)(=O)NNc2ccccc2)cc1,i
O=c1ncn(-c2cccc(F)c2)c2ncccc12,i
CCN(CC)S(=O)(=O)c1cccc(C(=O)N[C@H](C(=O)O)C(C)C)c1,i
O=C(O)c1cc2c([nH]c1=O)CCCC2,i
O=C(CSc1nnc(CN2CCOCC2)n1-c1ccccc1)Nc1ccc(Cl)cc1,0.7
Cc1nnc(C)n1/N=C/c1cccnc1,i
CC(O)CCc1nc2ccc(C(=O)O)cc2[nH]1 (stereo not drawn),i
Cc1cccc2cc(CN(Cc3cccs3)C(c3nnnn3C3CCCC3)C(C)C)c(=O)[nH]c12 (stereo not drawn),1.9
Cc1nnc(-c2cccc(Br)c2)c2cn(-c3ccccc3Cl)nc12,1.3
Cc1ccc(S(=O)(=O)N2CCCC(C(=O)O)C2)s1 (stereo not drawn),1.2
Oc1ccc(C=NCC2COc3ccccc3O2)cc1 (stereo not drawn),i
COc1ccccc1N1CCN(C(c2ccc(Cl)cc2)c2nnnn2C(C)(C)C)CC1 (stereo not drawn),1.0
Cc1cc(C)c(NC(=O)C(C)c2cccc(C(=O)c3ccccc3)c2)c(C)c1 (stereo not drawn),i
Cn1cccc1Cc1nnc(SCC(=O)Nc2cccc(Cl)c2)n1-c1ccc(F)cc1,0.7

# An excerpt of these results, field by field:
> O=c1ncn(-c2cccc(F)c2)c2ncccc12
- H5N1 CPE: i

> CCN(CC)S(=O)(=O)c1cccc(C(=O)N[C@H](C(=O)O)C(C)C)c1
- H5N1 CPE: i

> O=C(O)c1cc2c([nH]c1=O)CCCC2
- H5N1 CPE: i

# More structures.
molecule,H5N1 CPE
Cc1cc(C)n(C2CCCCC2OC(=O)c2ccccc2F)n1 (stereo not drawn),0.1
COc1cc(C2C3C(=O)N(Cc4ccccc4)C(=O)C3ON2c2ccccc2)cc(OC)c1OC (stereo not drawn),0.3
Cc1ccc(N(CC(=O)NCc2ccccc2Cl)S(=O)(=O)c2cccs2)cc1,i
O=C(c1ccccc1)N1CCC(c2nc(-c3ccc(S(=O)(=O)NCC4CCCO4)cc3)no2)CC1 (stereo not drawn),0.1
Cc1c([C@H]2[C@@H](CC#N)C2(C)C)c2ccccc2n1C,1.9
CC(=O)NC1=NC(=O)/C(=C/N2CCCCC2)S1,0.4
Cc1nn(Cc2ccc(F)cc2)c(C)c1NC(=O)c1noc2c1CCCCC2,6.1
CCC(=O)NC(=S)NNC(=O)c1ccc(OC)cc1,1.5
Cn1cccc1C(=O)OCC(=O)Nc1cc(C(C)(C)C)nn1-c1ccccc1,1.9
COC(=O)c1ccc(NC(=O)c2sc3nc(-c4ccccc4)cn3c2C)cc1,0.8
Cc1cc(C)c(C)c(S(=O)(=O)Nc2ccccc2C(=O)NCCCn2ccnc2)c1C,i
COc1ccc(/C(N)=N/OC(=O)CSc2ccc(C)cc2)cc1OC,0.1
COc1ccc(C2C(C(=O)Nc3ccc(F)cc3)=C(C)Nc3nc(CCCO)nn32)cc1 (stereo not drawn),0.9
CCOC(=O)C(NCc1ccc2c(c1)OCO2)(NC(=O)CC)C(F)(F)F (stereo not drawn),0.4
CN(C)c1ccc(C(=O)c2ccccc2)cc1,i
CCOc1ccc2nc(NC(=S)N(C)C)sc2c1,i
COC(=O)C1CCN(C(=O)CCCOc2ccccc2)CC1,1.0
CCCCSc1c(C)c2cc3c(cc2[nH]c1=O)OCO3,i
c1ccc2cc(Sc3ncnc4c3oc3ccccc34)ccc2c1,2.9
Cc1nc2ccccc2c(=O)n1NC(=O)c1ccc(F)cc1Cl,i
CC1CCCN(C(=O)Cn2c(-c3nonc3N)nc3ccccc32)C1 (stereo not drawn),0.6
CS(=O)(=O)c1cc([N+](=O)[O-])c(Sc2nc3ccccc3[nH]2)c([N+](=O)[O-])c1,i
CS(=O)(=O)NCCSCc1c(Cl)cccc1Cl,0.1
Cn1ncc(Cl)c1C(=O)N1CCc2ccccc21,1.5
CN(C)c1ccc(C2C3=C(CCCC3=O)OC3=C2C(=O)CCC3)cc1,i
O=C(O)C1CC=CCC1C(=O)NCCc1ccccc1 (stereo not drawn),0.8
CCOC(=O)CSc1nnc(-c2ccco2)n1C,i
CCOC(=O)CCNC(=O)Nc1ccc2nc(C)n(Cc3ccccc3Cl)c(=O)c2c1,1.2
Cc1cccc(C(=O)NCCN2CCCC2)c1,1.3
Nc1ccc(-n2ccnc2)cc1,0.6
O=C(c1ccco1)N1CCN(C2CC(=O)N(c3ccc4c(c3)OCO4)C2=O)CC1 (stereo not drawn),1.4
C=CCn1c(SCC(=O)NCc2ccc3c(c2)OCO3)nc2scc(-c3ccccc3)c2c1=O,2.0
NC(=O)NC(=O)Nc1ccccc1Cl,0.9
CC1(C)CC(=O)C(C#N)=C(NCCCO)C1,0.1
O=C(c1ccccc1F)N1CCN(Cc2ccccc2F)CC1,1.7
Cc1cc(C)cc(N2Cc3ccccc3C2)c1,i
S=C(NCc1ccco1)Nc1ccc(Cl)c(Cl)c1,i
N#Cc1nc(-c2cccs2)oc1NCC1CCCO1 (stereo not drawn),1.4
Fc1ccccc1OCCSc1nc2ccccc2o1,0.2
CCOC(=O)N1CCC(n2c(SCC(=O)Nc3ccccc3OC)nc3ccccc3c2=O)CC1,i
COc1cccc(/C=N/Nc2snc(SC)c2C#N)c1,i
CCCCOc1ccc(S(=O)(=O)NNC(=O)C2Cc3c(ccc4ccccc34)O2)cc1 (stereo not drawn),3.3
CCOc1ccc(-n2c(SCC(N)=O)nc3c([nH]c4ccccc43)c2=O)cc1,i
COc1ccc2c(c1)CCc1c(C(=O)NCc3cccnc3)noc1-2,0.1
O=C(CCCN1C(=O)c2ccccc2C1=O)NCc1cccnc1,0.4
CCC1Oc2ccccc2N(CC(=O)Nc2ccc3c(c2)OCCO3)C1=O (stereo not drawn),i
COc1cc(C2CC(=O)NC(SCC(=O)Nc3ccccc3C)=C2C#N)ccc1O (stereo not drawn),i
Cc1ccc2sc(NC(=O)CSc3nc(C)cc(C)c3C#N)nc2c1,i
O=C(Nc1cccc(NC(=O)c2cccs2)c1)c1ccco1,0.7
CCn1c(SCC(=O)Nc2ccc(NC(=O)c3ccco3)c(OC)c2)nc2ccccc2c1=O,i

# Continuation.
molecule,H5N1 CPE
COc1cc(/C=N/NC(=O)C(=O)N2CCCC2)ccc1O,i
COCCCN1C(=O)C(O)=C(C(C)=O)C1c1cccc(F)c1 (stereo not drawn),i
COc1ccc(NC(=O)N(C2CCCCC2)C2CCN(C(C)C)CC2)c(OC)c1,i
CCOC(=O)c1cc2occc2n1CC(=O)Nc1ccc(OC)cc1OC,i
FC(F)(F)c1cc(-c2ccco2)nc(NCc2ccccc2)n1,i
Cc1ccc(C2=Nc3ccccc3N=C(c3ccco3)C2)c(O)c1,i
CC(=O)Nc1ccc(-c2cn3ccsc3n2)cc1,0.6
CC(=O)Nc1cccc(C(=O)OC(C(=O)c2ccc(C)c(C)c2)c2ccccc2)c1 (stereo not drawn),i
O=C(CN1CCCC1)NCC12CC3CC(CC(C3)C1)C2,0.2
CCC(=NCc1ccc2c(c1)OCO2)c1c(O)n(C)c(=O)n(C)c1=O,i
Cc1nc2cc(CC(=O)O)ccc2o1,i
Cc1c(C(=O)Nc2ccc(OCc3ccccc3)cc2)cccc1[N+](=O)[O-],i
CC1CCc2c(C(=O)NCCCN3CCOCC3)csc2C1 (stereo not drawn),i
COC(=O)CSc1nc2ccc(C)cc2[nH]1,i
COc1ccccc1-n1c(SCC(=O)Nc2cccc3ccccc23)nc(O)cc1=O,0.1
Cc1noc(C)c1S(=O)(=O)Nc1ccc(C(=O)N2CCc3ccccc3C2)cc1,i
O=C(c1ccccc1)c1nnc(-c2ccccc2F)o1,i
COc1ccc(C(OC(=O)c2c(C)noc2C)C(=O)NC2CCCC2)cc1 (stereo not drawn),i
Cc1cc(C)nc(NC(=O)CSc2nnnn2-c2ccccc2)n1,0.6
c1ccc(OCc2nnc3sc(-c4cccs4)nn23)cc1,0.8
Cc1ccc(C2=NNC(C(O)C(O)C(O)C(O)CO)S2)cc1 (stereo not drawn),0.7
Cc1ccc(C)c(S(=O)(=O)Nc2ccc3scnc3c2)c1,i
COc1ccc(CNC(=O)C(c2ccc(C)cc2)N(Cc2cccs2)C(=O)c2ccc3c(c2)OCCO3)cc1 (stereo not drawn),i
CSc1nsc(SCC(=O)N2CCc3ccccc32)n1,1.5
CCCCc1nc2n[nH]c(N)c2c2c1CSC(C)(C)C2,i
COc1nc2c(C)cccc2cc1-c1noc(-c2ccco2)n1,0.1
Cc1noc(C)c1Cn1nc(C(=O)O)c2ccccc2c1=O,0.2
COc1ccc(-n2c(-c3cccc(C)c3[N+](=O)[O-])n[nH]c2=S)cc1,i
O=C(Cn1cnc2c(nnn2Cc2ccccc2F)c1=O)NCc1ccco1,i
Cc1c(NC(=O)c2cc3ccccc3c(=O)s2)c(=O)n(-c2ccccc2)n1C,2.4
CCOc1ccc(C(=O)NC(=S)N(Cc2ccccc2)Cc2ccccc2)cc1,3.5
Cc1ccc(N(Cc2cc3ccccc3[nH]c2=O)C(=O)c2ccco2)c(C)c1,1.2
C/C(=N\OC(=O)c1cccc(C(F)(F)F)c1)c1sc(-c2ccccc2)nc1C,i
COCCn1c(SCC(=O)c2ccc3c(c2)OCCO3)nnc1-c1ccco1,0.6
CCn1nnc(NC(=O)c2ccc(C(C)(C)C)cc2)n1,i
CC1=Nc2ccccc2/C1=C\c1nc(-c2ccc(F)cc2)oc1O,0.2
O=C(O)C1C2C=CC(O2)C1C(=O)NCCCn1ccnc1 (stereo not drawn),i

# 4 entries from above, as labelled records.
O=C(Cn1cnc2c(nnn2Cc2ccccc2F)c1=O)NCc1ccco1
  H5N1 CPE = i

Cc1c(NC(=O)c2cc3ccccc3c(=O)s2)c(=O)n(-c2ccccc2)n1C
  H5N1 CPE = 2.4

CCOc1ccc(C(=O)NC(=S)N(Cc2ccccc2)Cc2ccccc2)cc1
  H5N1 CPE = 3.5

Cc1ccc(N(Cc2cc3ccccc3[nH]c2=O)C(=O)c2ccco2)c(C)c1
  H5N1 CPE = 1.2
